Myc binder: binders of human c-Myc, primary screen, biochemical, small molecule microarray, anti-His fluorescence. Myc proto-oncogene protein (Homo sapiens), P01106. His-c-Myc binding. calls only. 17,000 compounds, 1.5% hits. AID 624141, 2012;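 active means spot fluorescence over background with P-value below 7% in all four replicate spots, showing protein binding; compounds were printed on slides so no solution concentration is given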;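 further: score is binary with 100 for all four spots passing and 0 otherwise; about 2 pmol printed per array spot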
Target sequence (P01106 whole entry, looked up): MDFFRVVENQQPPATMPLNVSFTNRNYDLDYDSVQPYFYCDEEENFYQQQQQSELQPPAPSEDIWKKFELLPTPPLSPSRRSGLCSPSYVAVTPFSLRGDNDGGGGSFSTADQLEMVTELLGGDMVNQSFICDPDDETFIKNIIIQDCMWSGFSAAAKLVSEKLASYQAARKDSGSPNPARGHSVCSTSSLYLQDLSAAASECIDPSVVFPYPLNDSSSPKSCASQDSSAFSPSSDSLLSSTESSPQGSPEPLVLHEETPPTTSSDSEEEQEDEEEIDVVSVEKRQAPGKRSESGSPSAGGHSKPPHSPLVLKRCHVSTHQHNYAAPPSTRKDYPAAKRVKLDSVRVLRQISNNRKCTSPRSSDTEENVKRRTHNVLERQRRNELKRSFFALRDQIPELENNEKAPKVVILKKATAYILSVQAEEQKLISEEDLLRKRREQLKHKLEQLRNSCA
p53 mut binder: binders of human mutant p53, primary screen, biochemical, small molecule microarray, anti-GST fluorescence. mutant tumor protein p53 (GST-tagged), Homo sapiens. small molecule microarray binding. calls only. 17,000 compounds, 0.4% hits;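 active means compounds whose four printed spots each glow above background more than chance allows, each with a p-value under 7%; compounds were printed on slides so no solution concentration is given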;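 further: about 2 pmol printed per array spot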
ID4 binder: binders of human ID4 protein, primary screen, biochemical, small molecule microarray, single point; DNA-binding protein inhibitor ID-4 (Homo sapiens), P47928; Flag-ID4 binding, fluorescence F/B; calls only; 31,000 compounds, 1.2% hits;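 active means spot signal over background at p below 0.07 in all four prints; compounds were printed on slides so no solution concentration is given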;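 further: a binder raises fluorescence above local background on the spot; about 2 pmol printed per array spot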
Target sequence (P47928 whole entry, looked up): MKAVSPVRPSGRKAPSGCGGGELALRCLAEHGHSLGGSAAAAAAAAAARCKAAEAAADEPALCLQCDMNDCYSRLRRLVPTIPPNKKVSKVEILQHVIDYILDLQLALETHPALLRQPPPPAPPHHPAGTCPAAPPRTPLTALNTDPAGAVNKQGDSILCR
STAT3 SMM: STAT3 binders, primary screen, biochemical, small molecule microarray, single point, set 2; Signal transducer and activator of transcription 3 (Homo sapiens), P40763; His-STAT3 binding, anti-His fluorescence; calls only; 17,000 compounds, 0.2% hits; AID 624138, 2012;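 active means compounds whose four printed spots each show fluorescence over background unusually high for their array block, chance value under 7%; compounds were printed on slides so no solution concentration is given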;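 further: about 2 pmol printed per array spot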
Calls only; i = inactive; . = not tested or not shown; + = active, no number.

SMILES | p53 mut binder | ID4 binder | Myc binder | STAT3 SMM
COc1ccc(S(=O)(=O)N(C)C[C@H]2Oc3ccc(NC(=O)CCCN(C)C)cc3CC(=O)N([C@@H](C)CO)C[C@@H]2C)cc1 | i | i | i | i
CNC[C@@H]1Oc2c(NC(=O)c3ccc(-c4nccs4)cc3)cccc2C(=O)N([C@@H](C)CO)C[C@H]1C | i | i | i | i
CNC[C@H]1Oc2c(NC(=O)NC(C)C)cccc2C(=O)N([C@@H](C)CO)C[C@H]1C | i | . | i | i
CNC[C@@H]1Oc2ccc(NS(C)(=O)=O)cc2CC(=O)N([C@H](C)CO)C[C@H]1C | i | i | i | i
Cc1ccc(N2C(=O)c3ccccc3[C@](C)(C(=O)O)[C@@H]2c2ccc(CO)cc2)nc1 | i | i | i | i
COc1ccc(I)cc1C(Nc1cc(C)ccn1)c1ccc2cccnc2c1O (configuration not stated) | i | i | i | i
CCc1ccc2nc(N3C(=O)C(=O)C(C(=O)c4ccco4)C3c3cc(OC)ccc3OC)sc2c1 (configuration not stated) | i | i | i | i
COc1ccc(S(=O)(=O)Nc2ccc3c(c2)CC(=O)N([C@H](C)CO)C[C@@H](C)[C@@H](CN(C)Cc2ccccc2)O3)cc1 | i | . | i | i
O=C(NCc1ccccc1)[C@@]1(Cc2ccccc2)N=C(c2ccc(OCCCO)cc2)O[C@H]1c1ccccc1 | + | i | i | i
COc1ccc(C(=O)CC2(O)C(=O)N(Cc3ccc(C)cc3)c3ccc(Cl)cc32)cc1[N+](=O)[O-] (configuration not stated) | i | i | i | i
C[C@H]1CN([C@@H](C)CO)C(=O)c2cc(NC(=O)Cc3ccccc3)ccc2O[C@H]1CN(C)C(=O)NC1CCCCC1 | i | i | i | i
COc1ccc(S(=O)(=O)N(C)C[C@@H]2Oc3ccc(NS(=O)(=O)c4ccc(C)cc4)cc3C(=O)N([C@@H](C)CO)C[C@@H]2C)cc1 | i | . | i | i
C[C@H](CO)N1C[C@H](C)[C@@H](CN(C)Cc2ccc3c(c2)OCCN3C)OCc2cnnn2CCCC1=O | i | i | i | i
C[C@@H]1CN([C@H](C)CO)C(=O)c2cc(NC(=O)Nc3ccc(C(F)(F)F)cc3)ccc2O[C@@H]1CN(C)C(=O)Nc1ccccc1 | i | . | i | i
COc1ccc(S(=O)(=O)NCCOc2ccccc2)cc1OC | i | i | i | i
C[C@@H]1CN([C@@H](C)CO)C(=O)c2cccc(NC(=O)NC3CCCCC3)c2O[C@@H]1CN(C)Cc1ccncc1 | i | i | i | i
CNC[C@H]1OCCCC[C@H](C)Oc2ccc(NS(=O)(=O)c3ccccc3)cc2C(=O)N([C@@H](C)CO)C[C@H]1C | i | i | i | i
C[C@H]1CN([C@@H](C)CO)C(=O)c2cc(NS(C)(=O)=O)ccc2O[C@@H]1CN(C)C(=O)Nc1ccc2c(c1)OCO2 | i | i | i | i
COc1ccc(CN(C)C[C@H]2Oc3ccc(NC(=O)Nc4ccc(C(F)(F)F)cc4)cc3CC(=O)N([C@@H](C)CO)C[C@@H]2C)cc1 | i | i | i | i
CC(=O)Oc1ccccc1C(=O)OCO/N=[N+](\[O-])N1CCC[C@H]1C(=O)O | i | i | i | i
Cc1cc(C(=O)Nc2cccc3c2O[C@H](CN(C)C(=O)Nc2ccccc2)[C@H](C)CN([C@@H](C)CO)C3=O)n(C)n1 | i | i | i | i
Cc1noc(C)c1S(=O)(=O)Nc1ccc2c(c1)C(=O)N([C@H](C)CO)C[C@H](C)[C@H](CN(C)C(=O)Nc1ccccc1)OCCCC[C@@H](C)O2 | i | i | i | i
Cc1c(CCC(=O)O)c(=O)oc2cc(O)c(Cl)cc12 | i | i | i | i
C[C@H](CO)N1C[C@H](C)[C@@H](CN(C)C)Oc2ccc(NC(=O)CCC(F)(F)F)cc2C1=O | i | i | i | i
C[C@@H]1CN([C@H](C)CO)C(=O)c2cc(NS(C)(=O)=O)ccc2O[C@@H](C)CCCCO[C@@H]1CN(C)S(=O)(=O)c1cccs1 | i | i | i | i
C[C@@H]1CN([C@@H](C)CO)C(=O)Cc2cc(NC(=O)Nc3ccccc3)ccc2O[C@@H]1CN(C)C(=O)NC1CCCCC1 | i | i | i | i
Cc1noc(C)c1NC(=O)Nc1ccc2c(c1)C(=O)N([C@@H](C)CO)C[C@H](C)[C@H](CN(C)C(=O)NC(C)C)OCCCC[C@H](C)O2 | i | i | i | i
CCO[C@H]1OC(C(=O)NCc2ccccc2)=C[C@@H](C2CCCCC2)[C@@H]1CCCO | i | i | i | i
C[C@H](CO)N1C[C@H](C)[C@H](CN(C)Cc2ccc3c(c2)OCO3)Oc2c(NS(=O)(=O)c3cn(C)cn3)cccc2C1=O | i | i | i | i
CNC[C@H]1Oc2c(NC(=O)NC3CCCCC3)cccc2C(=O)N([C@@H](C)CO)C[C@H]1C | i | i | i | i
CCn1cc(C(C)NC(=O)Nc2ccccc2C(=O)OC)c(C)n1 (configuration not stated) | i | i | i | i
Cc1noc(C)c1NC(=O)Nc1ccc2c(c1)C(=O)N([C@@H](C)CO)C[C@@H](C)[C@@H](CN(C)C(=O)NC(C)C)O2 | i | . | i | i
C[C@H](CO)N1C[C@H](C)[C@@H](CN(C)Cc2ccncc2)OCc2cn(nn2)CCCC1=O | i | i | i | i
CCn1c(SCC(=O)Nc2cccc(OC)c2)nc2scc(-c3ccccc3)c2c1=O | i | i | i | i
CCO[C@@H]1OC(C(=O)NC2CC2)=C[C@H](c2ccc(C(F)(F)F)cc2)[C@H]1CCCO | i | . | i | i
C[C@H](CO)N1C[C@H](C)[C@@H](CN(C)C(=O)CCC(F)(F)F)OCCCC[C@H](C)Oc2ccc(NS(=O)(=O)c3ccc(F)cc3)cc2C1=O | i | . | + | i
C[C@@H]1CCCCO[C@@H](CN(C)C)[C@@H](C)CN([C@H](C)CO)C(=O)c2cc(NC(=O)C3CCCCC3)ccc2O1 | i | i | i | i
C/C=C/C1=C(Cl)C(=O)[C@@H](O)[C@@]1(O)C(=O)OC | i | i | i | i
COc1ccc(NC(=O)Nc2ccc3c(c2)C(=O)N([C@@H](C)CO)C[C@@H](C)[C@H](CN(C)Cc2ccc(C(=O)O)cc2)OCCCC[C@@H](C)O3)cc1 | i | . | i | i
Cc1cc(C(=O)Nc2cccc3c2O[C@H](CN(C)S(=O)(=O)c2cccs2)[C@@H](C)CN([C@@H](C)CO)C3=O)n(C)n1 | i | i | i | i
Cc1ccc(S(=O)(=O)NC(=O)COc2cccc3ccccc23)c(C)c1 | i | i | + | i
CS(=O)(=O)N(CC(=O)Nc1ccccc1F)c1ccc(F)cc1 | i | i | i | i
C[C@@H]1CN([C@@H](C)CO)C(=O)Cc2cc(NC(=O)Nc3ccc(F)cc3)ccc2O[C@@H]1CN(C)S(=O)(=O)c1cccs1 | i | i | i | i
C[C@H](CO)N1C[C@H](C)[C@@H](CN(C)Cc2ccc(C(=O)O)cc2)OCCCC[C@H](C)Oc2ccc(NC(=O)C3CCCCC3)cc2C1=O | i | i | i | i
CNC[C@@H]1Oc2ccc(NS(=O)(=O)c3ccccc3)cc2CC(=O)N([C@@H](C)CO)C[C@H]1C | i | + | i | i

Whole records, quoted from the list.
CNC[C@@H]1Oc2ccc(NS(=O)(=O)c3ccccc3)cc2CC(=O)N([C@@H](C)CO)C[C@H]1C is listed with p53 mut binder: i; ID4 binder: +; Myc binder: i; STAT3 SMM: i
C/C=C/C1=C(Cl)C(=O)[C@@H](O)[C@@]1(O)C(=O)OC is listed with p53 mut binder: i; ID4 binder: i; Myc binder: i; STAT3 SMM: i
C[C@@H]1CCCCO[C@@H](CN(C)C)[C@@H](C)CN([C@H](C)CO)C(=O)c2cc(NC(=O)C3CCCCC3)ccc2O1 is listed with p53 mut binder: i; ID4 binder: i; Myc binder: i; STAT3 SMM: i

(cont.)
SMILES | p53 mut binder | ID4 binder | Myc binder | STAT3 SMM
C=CC[C@]1(C(=O)NCC(O)CO)N=C(c2ccc(OCCCO)cc2)O[C@H]1c1ccccc1 (some centres not stated) | i | i | i | i
COc1ccc(CN(C)C[C@H]2Oc3ccc(NC(=O)c4ccncc4)cc3CC(=O)N([C@H](C)CO)C[C@H]2C)cc1 | i | i | i | i
Cc1cc(O)c(Cc2c(O)cc(C)oc2=O)c(=O)o1 | i | . | i | i
CC(C)NC(=O)N(C)C[C@@H]1Oc2ccc(NS(=O)(=O)c3cn(C)cn3)cc2CC(=O)N([C@@H](C)CO)C[C@@H]1C | i | i | i | i
CCn1c(SCc2nc3ccccc3c(=O)[nH]2)nc2ccccc2c1=O | i | i | i | i
N#Cc1c(NC(=S)NC(=O)c2cncc(Br)c2)sc2c1CCCC2 | i | i | i | i
C[C@H]1CN([C@@H](C)CO)C(=O)c2cccc(NC(=O)Nc3ccc(C(F)(F)F)cc3)c2O[C@H]1CN(C)C | i | i | i | i
CC(C)NC(=O)N(C)C[C@@H]1Oc2ccc(NC(=O)CCC(F)(F)F)cc2CC(=O)N([C@@H](C)CO)C[C@@H]1C | i | i | i | i
CCc1cccc(C)c1NC(=O)C(C)NS(=O)(=O)c1ccc(C)cc1 (configuration not stated) | i | i | i | i
C[C@H]1CCCCO[C@@H](CN(C)Cc2ccccc2)[C@@H](C)CN([C@@H](C)CO)C(=O)c2cc(NC(=O)CCCN(C)C)ccc2O1 | i | i | i | i
COc1ccc(S(=O)(=O)N(C)C[C@@H]2Oc3ccc(NC(=O)Nc4ccc5c(c4)OCO5)cc3C(=O)N([C@H](C)CO)C[C@H]2C)cc1 | i | i | i | i
O=C1CC(C(=O)NCc2ccccc2)N=C(N2CCCCC2)N1 (configuration not stated) | i | i | i | i
COc1ccc(CN(C)C[C@@H]2Oc3c(NC(=O)c4ccc(-c5nccs5)cc4)cccc3C(=O)N([C@H](C)CO)C[C@H]2C)cc1 | i | i | i | i
CC(C)NC(=O)N(C)C[C@H]1Oc2c(NS(=O)(=O)c3cccs3)cccc2C(=O)N([C@@H](C)CO)C[C@H]1C | i | . | i | i
Cc1noc(C)c1NC(=O)N(C)C[C@@H]1Oc2c(cccc2N(C)C)C(=O)N([C@@H](C)CO)C[C@@H]1C | i | i | i | i
CCN(CC)CCNc1ncnc2scc(-c3ccc(F)cc3)c12 | i | i | i | i
C[C@H]1CN([C@@H](C)CO)C(=O)c2cc(NC(=O)Nc3ccc4c(c3)OCO4)ccc2O[C@H]1CN(C)C | i | i | i | i
C[C@@H]1CN([C@@H](C)CO)C(=O)CCCn2cc(nn2)CO[C@H]1CN(C)S(=O)(=O)c1ccc(Oc2ccccc2)nc1 | i | i | i | i
Cn1c(Cc2csc(N)n2)nnc1SC/C=C/c1ccccc1 | i | i | i | i
C[C@@H]1CN([C@@H](C)CO)C(=O)c2cc(NC(=O)CCC(F)(F)F)ccc2O[C@@H](C)CCCCO[C@@H]1CN(C)C(=O)CCC(F)(F)F | i | i | + | i
CC(C)NC(=O)N(C)C[C@@H]1OCc2cnnn2CCCC(=O)N([C@@H](C)CO)C[C@@H]1C | i | i | i | i
C[C@@H]1CN([C@@H](C)CO)C(=O)c2cc(NC(=O)Cn3cnnn3)ccc2O[C@H]1CN(C)C(=O)Nc1ccccc1 | i | i | i | i
Cc1noc(C)c1NC(=O)N(C)C[C@H]1Oc2ccc(NC(=O)C3CC3)cc2CC(=O)N([C@H](C)CO)C[C@H]1C | i | i | i | i
C[C@H]1CN([C@@H](C)CO)C(=O)CCCn2cc(nn2)CO[C@H]1CN(C)C(=O)c1ccccc1 | i | i | i | i
CCc1ccc(S(=O)(=O)NCC(=O)O)cc1 | i | i | + | i
Cc1noc(C)c1NC(=O)N(C)C[C@H]1OCCCC[C@H](C)Oc2ccc(NC(=O)c3ccncc3)cc2C(=O)N([C@H](C)CO)C[C@@H]1C | i | i | i | i
C[C@H]1CN([C@@H](C)CO)C(=O)c2cc(NC(=O)Nc3cccc4ccccc34)ccc2O[C@H]1CN(C)C(=O)NC1CCCCC1 | i | i | i | i
C[C@@H]1CCCCO[C@H](CN(C)C)[C@@H](C)CN([C@H](C)CO)C(=O)c2cc(NC(=O)Nc3ccc(F)cc3)ccc2O1 | i | i | i | i
OC[C@H]1O[C@@H](OCCc2ccccc2)[C@H](O)[C@@H](O)[C@@H]1O | i | i | i | i
Cc1nnc(SCC(=O)NCC2CCCO2)s1 (configuration not stated) | i | i | i | i
Cc1nc(SCC(=O)Nc2ccc3ccccc3c2)n[nH]1 | i | i | i | i
C[C@@H]1CCCCO[C@H](CN(C)C)[C@H](C)CN([C@@H](C)CO)C(=O)c2cc(NC(=O)Nc3ccccc3)ccc2O1 | i | i | i | i
[N-]=[N+]=NCc1ccccc1C[C@@]1(C(=O)N2CCOCC2)N=C(c2ccc(OCCCO)cc2)O[C@@H]1c1ccccc1 | i | i | i | i

High-throughput results (PubChem BioAssay)
